gsp antag: antagonizes gsp, the McCune-Albright syndrome mutation; gsp-mutant cells, cAMP HTRF, 30 min; control for the full effect not named in the record; Potency, µM (top dose mostly 76.9 µM), for inactives: at the highest dose activity change, negative = inhibition, actives largely listed as inhibitors; 340,000 compounds, 0.4% hits; active = falling curve of any shape with a large fitted effect; inconclusive = falling curve, mostly with a smaller effect; inactive = flat or rising curve; cell line not stated here;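 note: intracellular cAMP measured with PDE inhibitor Ro 20-1724 present during compound exposure; potency is the fitted concentration of half-maximal effect; % is set by controls: 0 for no effect and ±100 for the full control effect; nearly all actives have a fitted effect of over 65% in size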
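Cells, 2000/well, grown 16–24 h in DMEM 10% FBS with 0.5 mg/ml G418, then compounds plus […] (300 uM addition stock), 30 min at 37C. cAMP read by HTRF (cAMP-d2 and anti-cAMP antibody-K in lysis buffer) after 30 min RT.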
Menin-MLL FL inh: menin-MLL binding inhibition, fluorescein peptide; 290,000 tested, under 10 active; Fluorescence polarization, fluorescein-MLL peptide displacement from menin; FP activity change, % at 61.4 µM; AID 1766; inconclusive = falling polarisation curve, or a change in total fluorescence; inactive = total fluorescence flat and polarisation flat or rising; no compound was filed as active; the % refers to the polarisation; negative = inhibition;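 note: % of control where 0% means no effect; inhibitors lower the polarisation; unlabelled MLL peptide was the positive control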
gsp agonist: agonists of gsp mutant (McCune-Albright syndrome). Potency, µM (series often up to 76.9 µM), without a hit: at the highest dose activation (cAMP increase), most hits filed as activators. gsp mutant cells, cAMP HTRF, 30 min; control for the full effect not named in the record. 340,000 compounds, 0.13% hits; active = well fitted activation curve with a large enough effect; inconclusive = small, poorly fitted or top-dose-only effect, or another doubt; inactive = no such curve, though single readings can be large or run the other way; cell line not stated here;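 note: phosphodiesterase inhibitor Ro 20-1724 added with compounds to block cAMP breakdown; potency is the fitted concentration of half-maximal effect; nearly all actives have a fitted effect of over 60% in size; about a fifth of the inactives were tested at one dose only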
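Cells in DMEM/10% FBS with G418 were pretreated with compounds in DMSO plus […] (300 uM stock) for 30 min at 37C. cAMP was measured by HTRF (cAMP-d2 plus anti-cAMP antibody-K) after 30 min at room temperature.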
TRPV1 potentiator: potentiators of human vanilloid receptor 1 (TRPV1). Q8NER1. TRPV1-expressing cells, Fluo-8 calcium influx, capsaicin EC20 potentiation; host cell line not named in the record; control for the full effect not named in the record. potentiation, % at 8.33 µM. 320,000 compounds, 0.02% hits. AID 540277; active means potentiation above 80%; inconclusive means 30% to 80%; inactive means below 30%; note: 0% is about no effect
Target sequence (Q8NER1 whole entry, looked up): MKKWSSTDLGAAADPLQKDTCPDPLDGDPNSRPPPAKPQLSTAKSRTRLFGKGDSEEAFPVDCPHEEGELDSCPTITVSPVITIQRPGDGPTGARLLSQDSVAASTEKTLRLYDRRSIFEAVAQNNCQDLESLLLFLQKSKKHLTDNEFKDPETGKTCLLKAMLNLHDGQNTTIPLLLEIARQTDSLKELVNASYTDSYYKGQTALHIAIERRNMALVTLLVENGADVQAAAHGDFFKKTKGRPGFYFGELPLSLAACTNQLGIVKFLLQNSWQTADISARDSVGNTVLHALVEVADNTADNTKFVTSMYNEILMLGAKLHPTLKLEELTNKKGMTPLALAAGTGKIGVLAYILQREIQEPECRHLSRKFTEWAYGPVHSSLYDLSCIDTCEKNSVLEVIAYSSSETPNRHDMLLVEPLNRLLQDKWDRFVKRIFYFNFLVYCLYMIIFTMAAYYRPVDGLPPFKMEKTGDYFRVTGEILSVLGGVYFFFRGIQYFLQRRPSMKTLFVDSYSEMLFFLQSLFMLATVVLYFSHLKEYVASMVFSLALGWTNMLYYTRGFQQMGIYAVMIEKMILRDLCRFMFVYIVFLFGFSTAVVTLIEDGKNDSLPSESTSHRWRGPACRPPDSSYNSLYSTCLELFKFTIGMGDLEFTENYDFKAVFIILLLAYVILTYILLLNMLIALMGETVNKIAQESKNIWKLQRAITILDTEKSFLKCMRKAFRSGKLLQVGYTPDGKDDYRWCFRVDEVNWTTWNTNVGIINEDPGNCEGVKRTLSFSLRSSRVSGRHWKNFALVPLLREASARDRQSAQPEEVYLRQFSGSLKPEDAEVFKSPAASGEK
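Fluo-8 calcium influx in TRPV1-expressing cells, kinetic read (ex 480/em 520 nm). Compound added and read 3 min for agonist activity, followed by capsaicin at EC20 final and 2 min further read for enhancement.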
Sfp inh: Sfp phosphopantetheinyl transferase inhibition; Potency, µM, inactives show max response, negative = inhibition, most hits filed as inhibitors; Biochemical Sfp PPTase activity, qHTS; Q9F4F7; AID 1490; 310,000 compounds, 3.5% hits; active = well fitted inhibition curve with a large enough effect; inconclusive = small, poorly fitted or top-dose-only effect, or another doubt; inactive = no such curve, though single readings can be large or run the other way;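 note: the enzyme is Sfp with the accession as filed and its product quenches rhodamine fluorescence; potency is the fitted concentration of half-maximal effect; 0% = enzyme reaction without inhibitor and -100% = no enzyme wells; top concentration of the series not given in the record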
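With Hepes-Na pH 7.6 buffer containing 10 mM MgCl2, Sfp (15 nM) modified BHQ-2-YbbR (12.5 uM) using rhodamine-CoA (5 uM). Two reads 30 minutes apart at 525/598 nm yielded each well's rate.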
ClpP mod: qHTS Assay for Activators of ClpP; ATP-dependent Clp protease proteolytic subunit (Bacillus subtilis (strain 168)), P80244; purified B. subtilis ClpP, FRET peptide cleavage, 20 min; Potency, µM (highest dose often 57.5 µM), inactives show at the top dose activity change, negative = active; 340,000 compounds, 1.9% hits; active = well fitted falling curve with a large enough effect; inconclusive = small, poorly fitted or top-dose-only effect; inactive = no such curve, though single readings can be large or run the other way; note: potency is the fitted concentration of half-maximal effect; the source files actives as falling curves though it sought activators and does not explain the sign; nearly all actives have a fitted effect of over 65% in size; many hits overshoot -100%
Target sequence (P80244 whole entry, looked up): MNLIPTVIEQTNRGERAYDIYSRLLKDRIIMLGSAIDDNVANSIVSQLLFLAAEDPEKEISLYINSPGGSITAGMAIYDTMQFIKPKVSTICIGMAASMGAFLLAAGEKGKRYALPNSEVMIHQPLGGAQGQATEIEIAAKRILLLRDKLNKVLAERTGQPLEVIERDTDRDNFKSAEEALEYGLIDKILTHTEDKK
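FRET quenching reversal measured ClpP activation: 10 microg/mL B. subtilis ClpP at pH 8 with the FRET-FV decapeptide, read at 430 nm after 320 nm excitation. The 20-min minus 0-min signal was scaled between DMSO/no-enzyme wells and ADEP (5.8 microM final).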
CtBP-E1A blk: inhibitors of CtBP/E1A interaction | activity change, % (no concentration beside the values) | AlphaScreen GST-E1A/His-CtBP binding, 1536-well; stronger effect = lower value; control for the full effect not named in the record | 340,000 compounds, 0.49% hits; in the data active means activity change below about -65%; inconclusive means about -30% to -65%; inactive means above about -30%; note: % is set by controls: 0 for no effect and ±100 for the full control effect
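Protein mix (5X: 125 nM each GST-E1A, His-CtBP) was incubated with pinned compound 2 h at 37 deg C in dark, in 50 mM Tris pH 8.0 buffer with 300 mM NaCl. Glutathione donor and nickel acceptor beads followed; AlphaScreen signal read after 1 h.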
* hit, by the source's call; ? = inconclusive; . = no result given; [ ] = dose if it differs, or a comment.

Results follow in this order: gsp antag | Menin-MLL FL inh | gsp agonist | TRPV1 potentiator | Sfp inh | ClpP mod | CtBP-E1A blk
1) Cc1cc(=O)oc2cc(Oc3ccc(C(N)=O)cc3[N+](=O)[O-])ccc12
  -16.1% | 0.3 | -7.8% | 9.4 | 11.3% | 4.2% | .
2) CC(=O)Nc1ccc(S(=O)(=O)Nc2c(NC3CCCCC3)c3ccccc3oc2=O)cc1
  -27.4% | 2.6 | -0.3% | 10.5 | 1.1% | -0.8% | .
3) CCOC(=O)[C@@H]1[C@H]2COc3cc(OC)ccc3[C@H]2N2C(=O)N(c3ccc(F)cc3)C(=O)[C@@]12C
  -13.7% | -0.5 | -16.5% | 11.3 | 11.0% | -0.6% | .
4) Fc1ccc(-c2c[nH]c(=S)n2Cc2ccccc2)cc1
  -1.7% | -1.4 | 0.8% | 19.7 | ? | -3.0% | -6.9
5) CC1(C)Cc2c(c(N3CCOCC3)nc3sc(C(=O)Nc4cccc(Cl)c4)c(N)c23)CO1
  ? | 0.1 | 39.0% | -4.9 | 44.7µM* | ? | -5.5
6) COc1ccc(N(CC(=O)NC(C)C)C(=O)CCC(=O)Nc2ccccn2)cc1
  0.9% | 4.7 | -9.7%[15.4 µM] | 4.4 | 6.9% | 1.4% | 3.9
7) CCC(CC)c1nnc(NC(=O)c2cc([N+](=O)[O-])ccc2N2CCOCC2)s1
  -13.3% | . | -3.8% | . | . | 0.3% | -3.8
8) COc1ccc(N2CC(C(=O)NNC(=O)c3ccc(Br)cc3)CC2=O)c(OC)c1 (stereo not drawn)
  2.6% | . | -1.4% | 5.5 | . | -0.5% | -1.5
9) CCN1CCN(C(=O)c2ccc(Cl)c(S(=O)(=O)N3CCCCCC3)c2)CC1
  . | -6.1 | 3.5%[15.4 µM] | -14.3 | -4.9% | . | -16.5
10) COC(=O)[C@]1(Cc2ccccc2)N[C@H](CN(C)C(=O)Nc2ccccc2)[C@@H]2C(=O)N(C)C(=O)[C@@H]21
  -0.6% | . | . | . | . | -0.2% | 3.1
11) O=C(CCCN1C(=O)/C(=C/c2ccccc2)SC1=S)NCCCn1ccnc1
  -6.5% | . | -18.7% | -3.4 | 9.6% | -0.6% | -10.3
12) O=C(COc1ccc2c3c(c(=O)oc2c1)CCC3)Nc1ccccn1
  6.9% | . | -8.5% | -1.0 | 0.0% | ? | .
13) Cc1cccc(Nc2nnc(-c3ccc(N4CCOCC4)c([N+](=O)[O-])c3)c3ccccc23)c1
  -22.5% | 6.0 | -19.6% | 1.9 | -11.9% | . | -24.4
14) O=C(N/N=C/c1ccccn1)c1cccc([N+](=O)[O-])c1
  6.3% | -0.2 | 6.6%[15.4 µM] | ? | -44.4% | . | .
15) Cc1ccn2cc(-c3ccc(NC(=O)c4ccco4)cc3)nc2c1
  -5.0% | . | -14.7% | 2.9 | 11.1% | -7.0% | -3.4
16) COc1cccc(C(=O)N(Cc2nc(-c3ccc(C)cc3)no2)C(C)C)c1
  -5.0% | -1.1 | -15.7% | -3.6 | -1.6% | -0.6% | 8.3
17) Cc1ccc(N2C(=O)C3CCCN3C2=S)cc1 (stereo not drawn)
  -5.7% | 2.8 | ? | -7.9 | -6.3% | . | 3.8
18) Cn1c(=O)c2c(nc(N/N=C/c3ccco3)n2C)n(C)c1=O
  -8.5% | 0.6 | 0.5%[15.4 µM] | 3.3 | 17.8µM* | . | ?
19) Cc1cccc(OCCCC(=O)Nc2ccc(S(N)(=O)=O)cc2)c1
  15.9% | -5.1 | 3.1%[15.4 µM] | 2.4 | 2.8% | . | 3.7
20) COc1ccc(Nc2nnc(SCC(=O)c3cc4ccccc4o3)s2)cc1
  -14.1% | 4.2 | -2.8% | -7.7 | ? | -0.9% | -10.6
21) O=C(O)c1cccc2c1-c1ccc([N+](=O)[O-])cc1C2=O
  -4.6% | . | -16.8% | . | . | -0.9% | -0.4
22) CC(=O)NC(=O)c1cnn(-c2ccccc2)c1N
  1.2% | -0.9 | -6.3%[15.4 µM] | -6.0 | 10.9% | -1.6% | -2.2
23) Cn1nc(OCc2ccccc2)ccc1=O
  9.0% | 2.6 | -13.4% | 24.7 | 12.7% | -2.4% | 6.4
24) Cc1ccc(C2=N/C(=C\c3ccc(OS(=O)(=O)c4ccc(C)cc4)cc3)C(=O)O2)cc1
  -7.9% | 2.8 | -13.9% | 3.1 | 6.8% | -15.4% | 2.8
25) O=C(NCc1n[nH]c(=S)n1-c1ccc(F)cc1)c1ccco1
  9.1% | 5.8 | -8.7% | 7.1 | -5.4% | -2.5% | -10.1
26) O=C(CC1C(=O)NCCN1Cc1ccc(Cl)c(F)c1)NC1CCCCC1 (stereo not drawn)
  12.9% | . | -4.6% | -5.9 | 25.2% | -2.0% | 1.3
27) O=C(CN1C(=O)CC(c2ccco2)Sc2ccccc21)Nc1ccccc1F (stereo not drawn)
  -14.8% | 3.2 | -30.5%[inhibitor] | -11.1 | 15.8µM* | -0.5% | -5.9
28) O=C(Nc1ccc(N2CCCC2)cc1)c1ccc(Cl)cc1Cl
  4.5% | -9.0 | 7.0%[15.4 µM] | -1.1 | 1.0% | . | 2.4
29) CC(C(=O)Nc1ccc(S(=O)(=O)N2CCOCC2)cc1)N1C(=O)C2CC=CCC2C1=O (stereo not drawn)
  10.4% | -4.9 | -67.2%[inhibitor] | -3.8 | 13.3% | . | 4.1
30) CC1(O)CC2CC1C(C(=O)O)C2C(=O)O (stereo not drawn)
  1.8% | . | 5.9% | . | . | 4.7% | 5.5
31) CC(C)(C)NCc1cc(Cl)ccc1OCc1cccs1
  17.4% | 2.1 | -9.0% | -15.9 | -11.3% | 0.6% | 0.0
32) COc1cc(S(=O)(=O)N2CCCCCC2)c(OC)cc1Br
  ? | -0.4 | -42.9%[inhibitor] | 6.3 | -12.3% | 0.6% | -1.2
33) O=C(CCNS(=O)(=O)c1cccc2nsnc12)NCc1ccccc1Cl
  8.9% | 2.3 | 36.5% | -14.7 | 17.2% | . | 1.6
34) O=c1nc(N/N=C/C=C/c2ccccc2)cn[nH]1
  1.4% | 2.8 | -11.8%[15.4 µM] | ? | ? | . | -29.7
35) CCOC(=O)C1CCN(C(=O)c2ccc(N3CCOCC3)c([N+](=O)[O-])c2)CC1
  1.9% | . | -2.4% | -7.2 | . | 2.6% | .
36) CN(C)C=Nc1ccc2nn(-c3ccccc3)nc2c1
  11.6% | 1.8 | -0.2% | 17.5 | -10.8% | ? | -7.9
37) O=C(CSc1ccc(F)cc1)NC(=O)c1ccccc1
  . | . | -82.6%[inhibitor] | . | . | -1.3% | 13.2
38) COc1ccc(CN(C)C(C)C(=O)Nc2cccc3ccccc23)cc1 (stereo not drawn)
  -4.4% | 0.7 | -35.9%[inhibitor] | -6.5 | -24.7% | . | 8.7
39) COC(=O)C1(Cc2cc(-c3ccccc3)no2)CCN(C(=O)OC(C)(C)C)CC1
  -12.8% | 2.1 | . | -24.0 | -5.1% | 1.1% | 4.5
40) Cc1ccc(CNC(=O)C2CCCN(S(=O)(=O)N3CC(C)CC(C)C3)C2)cc1 (stereo not drawn)
  -1.2% | . | 1.0% | -16.5 | 6.8% | 1.1% | 4.9
41) COc1ccc(N(CC(=O)NCCC2=CCCCC2)S(C)(=O)=O)cc1OC
  11.0% | -4.1 | -53.0%[inhibitor] | -10.9 | -4.3% | 1.1% | 4.5
42) COc1cc(C2C(c3ccccc3)C(c3cc(OC)cc(=O)o3)C2c2ccccc2)oc(=O)c1 (stereo not drawn)
  ? | . | . | . | . | -7.2% | -5.5
43) c1ccc(CN2CN=C(Nc3nc4ccccc4s3)NC2)cc1
  4.6% | 2.2 | 1.4% | 8.0 | 13.7% | -0.9% | 0.9
44) CCOC(=O)c1ccc(S(=O)(=O)NC2CCCCCCC2)n1C
  1.7% | 0.1 | -43.6%[inhibitor] | 8.2 | 8.2% | 2.1% | 5.3
45) Cc1noc(C)c1CSc1nnc(C)c(=O)[nH]1
  7.7% | 0.8 | -5.3% | -15.1 | 11.5% | 2.2% | -1.2
46) Cc1ccc(C(=O)c2c3ccc(C(F)(F)F)cc3nn2CCC(N)=O)cc1
  -8.7% | . | . | 20.5 | . | -3.3% | -2.8
47) Cc1cc(C)c(S(=O)(=O)N2CCCOC2CNC(=O)C(=O)NCc2ccco2)c(C)c1 (stereo not drawn)
  10.6% | 8.7 | 0.0% | 8.6 | -2.1% | 0.7% | -6.9
48) CC(=O)OCC(=O)C1=CCC2C3CCC4=CC(=O)C=CC4(C)C3(F)C(OC(C)=O)CC12C (stereo not drawn)
  15.0% | -1.0 | -1.0% | -4.5 | 16.1% | 3.9% | -3.6
49) COc1ccc(NC(=O)Nc2nnc(-c3ccco3)s2)cc1
  -1.8% | 1.1 | -1.3% | 10.1 | 7.3% | -6.5% | 6.6

Exported tab-delimited: part of the list above
No.	compound	gsp antag	Menin-MLL FL inh	gsp agonist	TRPV1 potentiator	Sfp inh	ClpP mod	CtBP-E1A blk
42	COc1cc(C2C(c3ccccc3)C(c3cc(OC)cc(=O)o3)C2c2ccccc2)oc(=O)c1 (stereo not drawn)	?	.	.	.	.	-7.2%	-5.5
43	c1ccc(CN2CN=C(Nc3nc4ccccc4s3)NC2)cc1	4.6%	2.2	1.4%	8.0	13.7%	-0.9%	0.9
44	CCOC(=O)c1ccc(S(=O)(=O)NC2CCCCCCC2)n1C	1.7%	0.1	-43.6%[inhibitor]	8.2	8.2%	2.1%	5.3
45	Cc1noc(C)c1CSc1nnc(C)c(=O)[nH]1	7.7%	0.8	-5.3%	-15.1	11.5%	2.2%	-1.2
46	Cc1ccc(C(=O)c2c3ccc(C(F)(F)F)cc3nn2CCC(N)=O)cc1	-8.7%	.	.	20.5	.	-3.3%	-2.8
